A1 inhib – blocks A1 activity. MEF A1-2A-BIM cells, caspase-Glo luminescence, 3 h; percent of clofoctol signal, DMSO as zero. caspase activation, % (no concentration beside the values). hit rate 0.51% among 21,000. AID 2241;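 active means most replicate scores above 10, or exactly half above 10 with mean activity above 10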;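 further: effector caspase 3 and 7 activity cleaving a DEVD luciferin substrate; 50 nL library stock added to about 30 µL; numbers are from one replicate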
BJeLR viab HTS – compounds reducing viability of BJeLR cells; viability loss activity score, % (no concentration beside the values); hit rate 0.64% among 30,000; BJeLR fibroblasts viability, CellTiterGlo ATP luminescence, 48 h; HRASV12, hTERT and SV40 LT/ST transformed; AID 2275; in the data active means viability loss activity score above about 50%; about a fifth of its hits are not listed in these tables;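 further: higher score means fewer live cells and less ATP luminescence; stock transfer was 50 or 100 nL into about 30 µL; 0% = vehicle wells and 100% = a reference killing control; one replicate is shown; the record names a cut of 85%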
The depositor's hits bear a star; nt = no result given. Not all compounds are listed. The share of hits here may be higher or lower than overall.

The line under a structure holds: A1 inhib, BJeLR viab HTS
C[C@@H]1CN([C@@H](C)CO)C(=O)c2cc(NS(=O)(=O)c3ccccc3)ccc2O[C@H]1CN(C)Cc1ccc(Cl)c(Cl)c1
→ -0.4, -1.2
CC1OC(O[C@H]2CC[C@@]3(C)C(CC[C@]4(C)C3CC=C3C5CC(C)(C)CC[C@]5(C(=O)OC5OC(CO)C(OC6OC(CO)C(O)C(O)C6O)C(O)C5O)CC[C@]34C)C2(C)C)C(O)C(O)C1OC1OCC(O)(COC2OCC(O)C(OC3OCC(OC4OCC(O)(CO)C4O)C(O)C3O)C2O)C1O (stereo partly drawn)
→ -0.2, -5.0
CC1Cc2nc(SC/C=C/c3ccccc3)n(C)c(=O)c2S1 (stereo not drawn)
→ nt, -1.0
Cc1ccc(CSCCC(=O)N2CCN(c3cccc(C)c3C)CC2)cc1
→ -0.5, 0.4
Cc1noc(C)c1NC(=O)Nc1cccc2c1O[C@H](CN(C)S(=O)(=O)c1ccccc1)[C@@H](C)CN([C@@H](C)CO)C2=O
→ nt, 3.1
COC(=O)c1cc2ccc(OC)c(OC)c2c(=O)s1
→ nt, -6.3
CCC(C)NC(=O)c1ccc2c(Cl)c3c(nc2c1)CCC3 (stereo not drawn)
→ -5.2, -5.4
C[C@@H]1CN([C@@H](C)CO)C(=O)c2cc(NC(=O)Cc3cn(C)c4ccccc34)ccc2O[C@@H]1CN(C)S(C)(=O)=O
→ 0.2, -1.1
C[C@@H]1CN([C@@H](C)CO)C(=O)c2cccc(NC(=O)c3ccncc3)c2O[C@H]1CN(C)C(=O)Nc1ccc2c(c1)OCO2
→ nt, -2.0
CCN=C1SC(CC(=O)Nc2cccc(C(=O)O)c2)C(=O)N1CC (stereo not drawn)
→ 1.7, 2.4
C[C@H]1CN([C@@H](C)CO)C(=O)c2cc(NC(=O)Cc3cn(C)c4ccccc34)ccc2O[C@H]1CN(C)Cc1ccc(Oc2ccccc2)cc1
→ 0.3, 3.7
C[C@H]1CN([C@@H](C)CO)C(=O)c2cccc(NS(=O)(=O)c3cn(C)cn3)c2O[C@H]1CN(C)Cc1ccccc1
→ nt, 7.2
O=C(N1CCCc2ccccc21)N1c2ccccc2Sc2ccccc21
→ -0.9, -3.5
CCOC(=O)c1cc(-c2nnc(-c3cccc(C)c3)o2)c(C)nc1C
→ 0.2, 5.1
CN(C)Cc1ccc(C(=O)Oc2ccc(C(C)(C)C)cc2)cc1
→ -0.7, -6.8
C[C@H](CO)N1C[C@H](C)[C@@H](CN(C)Cc2ccncc2)Oc2ccc(NC(=O)Nc3ccc(F)cc3)cc2C1=O
→ 0.2, 2.8
CNC[C@H]1Oc2ccc(NC(=O)Nc3ccc4c(c3)OCO4)cc2C(=O)N([C@H](C)CO)C[C@@H]1C
→ 0.1, -2.6
COC(=O)N1CCC(=O)Nc2ccccc21
→ 0.5, -4.3
COc1ccc(NC(=O)N(C)C[C@@H]2Oc3c(NC(=O)Nc4ccc(F)cc4)cccc3C(=O)N([C@@H](C)CO)C[C@@H]2C)cc1
→ nt, -0.9
Cc1ccc(S(=O)(=O)Nc2ccc3c(c2)C(=O)N([C@@H](C)CO)C[C@H](C)[C@@H](CN(C)S(=O)(=O)c2ccc(C)cc2)O3)cc1
→ 0.3, -5.1
COc1ccc(CN(C)C[C@@H]2Oc3c(NS(=O)(=O)c4cccs4)cccc3C(=O)N([C@@H](C)CO)C[C@@H]2C)cc1
→ nt, 1.6
Cc1ccccc1-c1nc2cc(NC(=O)c3cccc(F)c3)ccc2o1
→ -1.4, 0.9
COc1ccc(S(=O)(=O)Nc2ccc3c(c2)C(=O)N([C@@H](C)CO)C[C@H](C)[C@@H](CN(C)Cc2ccc(Cl)c(Cl)c2)O3)cc1
→ 0.5, -1.9
CCN1CCN(C(=O)c2ccc(CS(=O)(=O)Cc3ccccc3F)o2)CC1
→ 0.1, 6.8
C[C@@H]1CN([C@@H](C)CO)C(=O)c2cc(NC(=O)CCCCCC(=O)Nc3ccccc3N)ccc2O[C@H]1CN(C)C(=O)NC1CCCCC1
→ nt, -1.9
CCC(C)NC(=O)C(C)n1sc2ccccc2c1=O (stereo not drawn)
→ 2.1, 0.1
COc1ccc(-c2nc(SCC(=O)N(C3CCCCC3)C3CCCCC3)n[nH]2)cc1
→ -0.6, 5.6
C[C@@H]1CN([C@@H](C)CO)C(=O)c2cccc(NC(=O)NC3CCCCC3)c2O[C@@H]1CN(C)C(=O)Nc1ccc(C(F)(F)F)cc1
→ nt, -0.7
COc1ccc(S(=O)(=O)N(C)C[C@@H]2Oc3ccc(NC(=O)C4CCCCC4)cc3C(=O)N([C@H](C)CO)C[C@H]2C)cc1
→ 0.0, 2.8
CSc1c(CC(=O)NN)n(C)c2ccccc12
→ 0.4, 1.6
COC(=O)c1sc(SC)c(-c2ccn(S(=O)(=O)c3ccc(Cl)cc3)n2)c1C
→ -0.5, 0.2
COc1ccc(S(=O)(=O)N(C)C[C@@H]2Oc3c(NC(=O)c4cnccn4)cccc3C(=O)N([C@@H](C)CO)C[C@@H]2C)cc1
→ nt, 1.8
COc1ccc(S(=O)(=O)Nc2cccc3c2O[C@@H](CN(C)C(=O)Nc2ccc(C(F)(F)F)cc2)[C@H](C)CN([C@H](C)CO)C3=O)cc1
→ nt, -0.1
Cc1noc(C)c1S(=O)(=O)N(C)C[C@H]1Oc2c(NC(=O)c3cnccn3)cccc2C(=O)N([C@H](C)CO)C[C@H]1C
→ nt, -1.0
CCOC(=O)CSc1cn(Cc2ccc(Cl)cc2)c2ccccc12
→ -0.3, 5.9
Cc1cc2c(c(=O)n1CCCn1ccnc1)C(c1ccccc1)C(C#N)=C(N)O2 (stereo not drawn)
→ -0.6, -1.3
Cc1cc(O)cc(Oc2cc(C)cc(O)c2O)c1
→ -1.0, 1.2
O=C1CCCN1CN1CCCCC1
→ 0.1, -11
Cc1noc(C)c1S(=O)(=O)Nc1cccc2c1O[C@H](CN(C)S(=O)(=O)c1cccs1)[C@H](C)CN([C@H](C)CO)C2=O
→ nt, -0.8
C[C@@H]1CN([C@@H](C)CO)C(=O)c2cc(NC(=O)Nc3ccccc3)ccc2O[C@@H]1CN(C)S(C)(=O)=O
→ 0.5, -0.3
O=C(Cn1c(=O)c2cccn2c2ccccc21)NCCc1ccc(Cl)cc1
→ 0.8, -3.8
O=C(Nc1ccccc1)N1CCN2C(=O)c3ccccc3C12c1ccccc1 (stereo not drawn)
→ nt, -8.6
CC(C)NC(=O)N(C)C[C@@H]1Oc2ccc(NS(=O)(=O)c3ccc(F)cc3)cc2C(=O)N([C@@H](C)CO)C[C@@H]1C
→ -0.1, -1.3
COc1ccc(-c2ccc(OC)cc2C(=O)NN)cc1
→ -0.2, 0.6
Cc1noc(C)c1S(=O)(=O)Nc1cccc2c1O[C@H](CN(C)Cc1ccc(Oc3ccccc3)cc1)[C@H](C)CN([C@@H](C)CO)C2=O
→ nt, -0.1
O=C1Nc2ccccc2C1(O)C/C(=N/O)c1ccco1 (stereo not drawn)
→ 1.2, -0.6
CCOC(=O)C1=CS/C(=C2/C(=S)C(C)(C)N(C(=O)CC(C)C)c3ccc(OCC)cc32)S1
→ 0.1, 5.5
C[C@H]1CN([C@@H](C)CO)C(=O)c2cc(NS(=O)(=O)c3ccc(Cl)cc3)ccc2O[C@@H]1CN(C)S(C)(=O)=O
→ 0.4, 5.3
C[C@@H]1CN([C@@H](C)CO)C(=O)c2cc(NC(=O)CCN3CCOCC3)ccc2O[C@H]1CN(C)C(=O)Nc1ccc2c(c1)OCO2
→ 0.3, -6.0
CCOC(=O)c1sc(SC)c2c1CCCC21SCCS1
→ -0.9, -1.2
CC(=O)Nc1cccc(OC(=O)c2ccoc2C)c1
→ 0.7, 1.7
CS(=O)(=O)NC(c1ccccc1)c1ccccc1
→ 0.6, -2.4
CNC[C@H]1Oc2c(NC(=O)C3CCOCC3)cccc2C(=O)N([C@@H](C)CO)C[C@H]1C
→ nt, -0.4
C[C@H](CO)N1C[C@H](C)[C@H](CN(C)S(=O)(=O)c2ccccc2)Oc2ccc(NS(=O)(=O)c3cn(C)cn3)cc2C1=O
→ -0.9, 1.1
COc1ccc(S(=O)(=O)Nc2cccc3c2O[C@@H](CN(C)Cc2ccc(Oc4ccccc4)cc2)[C@@H](C)CN([C@@H](C)CO)C3=O)cc1
→ nt, 0.1
CC1=C(CCC2=CC(=O)OC2O)[C@@]2(C)CCC[C@]3(C)C(=O)OC(C1=O)[C@@H]32 (stereo partly drawn)
→ 0.2, -8.9
O=C(CN(Cc1ccc(Br)cc1)S(=O)(=O)c1ccccc1)Nc1ccccc1
→ 0.2, 2.0
COC(=O)C1=CO[C@@H](O[C@@H]2O[C@H](CO)[C@@H](O)[C@H](O)[C@H]2O)[C@@H]2[C@@](C)(O)[C@@H](OC(=O)/C=C/c3ccc(OC)c(OC)c3)C[C@]12O
→ 0.4, -1.5
CCc1ccc(NC(=O)CCCN2C(=S)NC(C)(C)CC2C)cc1 (stereo not drawn)
→ nt, 1.2
CNC[C@@H]1Oc2ccc(NC(=O)Nc3ccc(OC)cc3)cc2C(=O)N([C@H](C)CO)C[C@H]1C
→ 0.2, -0.7

Complete entries as entered above.
O=C(Cn1c(=O)c2cccn2c2ccccc21)NCCc1ccc(Cl)cc1 is listed with A1 inhib = 0.8; BJeLR viab HTS = -3.8
COC(=O)c1sc(SC)c(-c2ccn(S(=O)(=O)c3ccc(Cl)cc3)n2)c1C is listed with A1 inhib = -0.5; BJeLR viab HTS = 0.2
COc1ccc(-c2ccc(OC)cc2C(=O)NN)cc1 is listed with A1 inhib = -0.2; BJeLR viab HTS = 0.6

(list continues)
The line under a structure holds: A1 inhib, BJeLR viab HTS
CC(C)NC(=O)N(C)C[C@@H]1Oc2c(NS(=O)(=O)c3ccccc3)cccc2C(=O)N([C@@H](C)CO)C[C@@H]1C
→ nt, -6.6
COC(=O)c1cn(CCOc2ccccc2)c2ccccc12
→ nt, 2.5
CN(C)CC/C=C1\c2ccccc2CSc2ccccc21
→ 0.9, 1.9
O=C(CCC(=O)Nc1ccc(F)cc1)Nc1ccc(F)cc1
→ 1.4, 0.7
O=C(/C=c1\[nH]/c(=C/c2ccc(F)cc2)c(=O)[nH]c1=O)c1ccccc1
→ 12*, 70*
C[C@H]1CN([C@@H](C)CO)C(=O)c2cc(NC(=O)CCN3CCOCC3)ccc2O[C@H]1CN(C)S(C)(=O)=O
→ -0.1, -5.8
Oc1c(Cl)cc(Cl)c(Cl)c1Cc1c(O)c(Cl)cc(Cl)c1Cl
→ 0.8, -8.0
C[C@@H]1CN([C@H](C)CO)C(=O)c2cc(NC(=O)C3CCCCC3)ccc2O[C@H]1CN(C)C(=O)Nc1ccc2c(c1)OCO2
→ 0.3, -2.5
C[C@H](CO)N1C[C@H](C)[C@@H](CN(C)Cc2ccc(C(=O)O)cc2)Oc2ccc(NC(=O)Nc3ccc(C(F)(F)F)cc3)cc2C1=O
→ 0.2, 2.3
C[C@@H]1CN([C@H](C)CO)C(=O)c2cc(NS(C)(=O)=O)ccc2O[C@H]1CN(C)C(=O)Nc1ccccc1
→ 0.6, 0.0
c1coc(-c2nc3ccccc3n2CCC2CCCCC2)c1
→ -0.9, -7.0
CNC[C@@H]1Oc2c(NC(=O)NC3CCCCC3)cccc2C(=O)N([C@H](C)CO)C[C@H]1C
→ nt, -3.1
Cc1cc(NC(=O)CSc2nc3c(sc4ccccc43)c(=O)n2CCc2ccccc2)n[nH]1
→ 0.0, 1.0
Cc1ccc(S(=O)(=O)N(C)C[C@H]2Oc3ccc(NC(=O)NC4CCCCC4)cc3C(=O)N([C@@H](C)CO)C[C@@H]2C)cc1
→ 0.6, -0.5
Cc1ccc(S(=O)(=O)Nc2ccc3c(c2)C(=O)N([C@@H](C)CO)C[C@@H](C)[C@H](CN(C)Cc2ccc4c(c2)OCO4)O3)cc1
→ 0.1, -1.7
COc1ccc(CC2(C)OC(c3ccncc3)=NN2C(C)=O)cc1 (stereo not drawn)
→ nt, 4.0
COC(=O)c1cc(S(=O)(=O)N2CCOCC2)oc1C
→ 0.1, -0.7
COc1cc(CC(CO)C(CO)Cc2ccc(O)c(OC)c2)ccc1O (stereo not drawn)
→ -0.1, 7.0
COc1cc(/C=C2/SC(=S)NC2=O)ccc1OC(=O)c1cccc(C)c1
→ -0.5, 0.7
CCOC(=O)c1ccc(NC(=S)NCCN2CCNC2=O)cc1
→ 0.5, -4.2
Cc1noc(C)c1S(=O)(=O)Nc1cccc2c1O[C@@H](CN(C)S(=O)(=O)c1ccc(Cl)cc1)[C@@H](C)CN([C@@H](C)CO)C2=O
→ nt, -3.7
CCc1ccc(S(=O)(=O)/N=C2/C=C(Nc3ccccc3)C(=O)c3ccccc32)cc1
→ -5.1, 32
COc1ccc(S(=O)(=O)N(C)C[C@@H]2Oc3ccc(NC(=O)CCCN(C)C)cc3C(=O)N([C@@H](C)CO)C[C@@H]2C)cc1
→ 0.1, -8.3
CC(C)NC(=O)Nc1cccc2c1O[C@H](CN(C)CC1CCCCC1)[C@H](C)CN([C@@H](C)CO)C2=O
→ nt, 4.2
CC(=O)OC[C@H]1O[C@@H](Oc2ccccc2COC(=O)C2(O)C=CCCC2=O)[C@H](OC(C)=O)[C@@H](O)[C@@H]1O (stereo partly drawn)
→ 0.0, -4.4
CC1CCN(S(=O)(=O)c2ccc3nc(-c4ccccn4)cc(C(=O)NC4CCCC4)c3c2)CC1
→ -1.2, -5.6
CCn1c(C)nnc1SCc1ccccc1
→ 0.8, -1.4

Source: PubChem (Broad Institute)
